High-throughput results from PubChem BioAssay.
Bm FixLJ act: B. multivorans fixK reporter activation. AID 1918990. z-score (no concentration beside the values). actives 0.3% (n = 29,000). B. multivorans fixK-promoter GFP reporter, 18 h; hits give high values;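 active means replicate mean overnight rise in green fluorescent reporter signal, 3 or more SD over negative controls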;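 further: score is relative to vehicle wells of the plate; 300 nL library stock went into each well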
Numbers without * were called inactive.

Sample of the layout (5 entries):
SMILES | Bm FixLJ act
COc1cccc(NC(c2nnc(-c3ccccc3)o2)c2ccc(F)cc2Cl)c1 (stereo not drawn) | -1.3
COc1ccc(NC(=O)C(Cc2ccccc2)NS(=O)(=O)c2ccc3c(c2)CCC(=O)N3)c(OC)c1 (stereo not drawn) | 0.64
COCC(=O)Oc1c(Sc2ccc(C)cc2)c(C)nn1C(C)(C)C | -0.66
COc1ccc(NC(=O)CSc2nc(-c3ccco3)cc(C(F)(F)F)n2)cc1 | -0.91
Cc1oc2ccc(O)c(CN3CCCCCC3)c2c1C(=O)Nc1cccc(C(F)(F)F)c1 | -1.9

The listing, previewed entries included:
SMILES | Bm FixLJ act
COc1cccc(NC(c2nnc(-c3ccccc3)o2)c2ccc(F)cc2Cl)c1 (stereo not drawn) | -1.3
COc1ccc(NC(=O)C(Cc2ccccc2)NS(=O)(=O)c2ccc3c(c2)CCC(=O)N3)c(OC)c1 (stereo not drawn) | 0.64
COCC(=O)Oc1c(Sc2ccc(C)cc2)c(C)nn1C(C)(C)C | -0.66
COc1ccc(NC(=O)CSc2nc(-c3ccco3)cc(C(F)(F)F)n2)cc1 | -0.91
Cc1oc2ccc(O)c(CN3CCCCCC3)c2c1C(=O)Nc1cccc(C(F)(F)F)c1 | -1.9
CN1CCN(c2ccc(C(=O)N3CCCC3)cn2)CC1C(=O)O (stereo not drawn) | 0.5
Cc1ccc(OCC(=O)OC2=C(C(=O)c3ccccc3)N(C)S(=O)(=O)c3ccccc32)cc1 | -1.1
Cc1nnc(N2CCN(c3cccc(Cl)c3)CC2)c2c1nnn2Cc1ccc(F)cc1 | -1.3
Cc1ccc(C)c(Nc2cc(C(=O)NC3CCCC3)c3ccccc3n2)c1 | -0.68
CCC1(C)CCN(C(=O)c2cc(COc3ccccc3OC)[nH]n2)CC1 | -2.1
COC(=O)c1ccccc1NC(=O)CSc1nc2sc3c(c2c(=O)[nH]1)CCCC3 | -1.1
Cc1nnc(NCc2ccc(F)cc2)c2c1nnn2Cc1ccccc1Cl | -0.37
CCc1nn(CC(=O)NC(C)c2ccccc2)c(=O)c2cc3sccc3n12 (stereo not drawn) | -0.6
Cc1ccc(-n2c(/C=C/c3c(C)n(C)c4ccccc34)nc3ccccc3c2=O)cc1 | -0.3
Cc1ccc(S(=O)(=O)c2nc(-c3cccs3)oc2SC(C)c2ccccc2)cc1 (stereo not drawn) | -1.4
COc1ccccc1NC(=O)C1=C(C)Nc2ncnn2C1c1ccccc1C(=O)O (stereo not drawn) | -0.83
CCOC(=O)c1cnc2c(ccc3ccccc32)c1Nc1ccccc1OCC | 0.23
Cc1c(CNC2CCCCC2)c(C(=O)O)c(C)n1Cc1ccc(Cl)cc1 | -2.2
Cc1cc(C)cc(N(CC(=O)Nc2ccc(C)cc2Cl)S(=O)(=O)c2c(C)[nH]c(=O)[nH]c2=O)c1 | -0.53
CC(C)c1cc(CN2CCN(c3ccc4nccn4n3)CC2)on1 | -0.55
Cc1cc(N(C)Cc2nc(-c3ccccc3)no2)n2nccc2n1 | 0.04
COc1ccc(C2CN(c3ccnc(C)n3)CC2NC(C)=O)cc1 (stereo not drawn) | -0.03
COc1ccc(Br)c(C(=O)Nc2cc3c(cc2N2CCOCC2)n(C)c(=O)n3C)c1 | 0.26
COc1ccc(NC(=O)CN(c2ccc(C)cc2)S(=O)(=O)c2cccc3nonc23)cc1OC | -1.5
CC(CO)NC(=O)C1C=C2c3cccc4[nH]cc(c34)C[C@H]2N(C)C1 (stereo partly drawn) | -0.14

(continued)
SMILES | Bm FixLJ act
CCc1ccc(Oc2c(C(F)(F)F)oc3c(CN4CCN(CC)CC4)c(O)ccc3c2=O)cc1 | -1.8
Cc1ccc(C)c(NS(=O)(=O)c2ccc3c4c(cccc24)C(=O)N3)c1 | -0.26
O=C(Nc1ccccc1C(F)(F)F)C1CCN(S(=O)(=O)c2ccccc2)CC1 | -3.8
Cc1cc(C(F)(F)F)nc(CNC(=O)C2(C(N)=O)CC2)n1 | -2.8
Cc1c(CC(=O)NCCc2ccc(Cl)cc2)c(=O)oc2c(C)c3occ(C(C)(C)C)c3cc12 | -0.66
Cn1c(C(=O)N2CCC(C(=O)NCCc3ccccc3)CC2)cc2sccc21 | -0.5
COc1ccc(Br)cc1C(=O)Nc1ccc2oc(-c3cccnc3)nc2c1 | -0.33
Cc1ccsc1CN(C(=O)COc1cccc(C)c1C)C1CCS(=O)(=O)C1 (stereo not drawn) | -0.98
COc1cc2ccccc2cc1C(=O)Nc1ccc2oc(-c3cccc(Cl)c3Cl)nc2c1 | 1.1
O=C(Cn1c(=O)n(CCc2ccccc2)c(=O)c2c3c(sc21)CCCC3)Nc1ccc(F)c(F)c1 | -0.95
Cc1oc2ccc(O)c(CN3CCCCC3)c2c1C(=O)Nc1cccc(C(F)(F)F)c1 | -2.1
CCOc1ccc(NC(=O)Cc2coc3ccc(C)cc23)cc1 | 0.94
O=C(c1ccc[nH]1)N1CCC2(CC1)c1nc[nH]c1CCN2C(=O)C1CC1 | 0.04
Cc1ccc2oc(-c3ccc(Cl)c(NC(=O)Cc4ccccc4)c3)nc2c1 | 0.08
Cc1ccccc1C1(O)CCN(C(=O)Nc2cnn(C)c2)C1 (stereo not drawn) | -1.7
CCc1cccc(NC(=O)C2CCCN(S(=O)(=O)c3cccs3)C2)c1 (stereo not drawn) | -1.6
CNC(C)C(=O)N1CCC2(CCC(=O)N(CCc3cnc[nH]3)C2)CC1 (stereo not drawn) | -0.4
COC(=O)C(Cc1c[nH]c2ccccc12)NC(=O)COc1ccc(Cl)cc1Cl (stereo not drawn) | 0.75
Cc1ccc(N(CC(=O)N2CCN(c3cccc(C)c3C)CC2)S(=O)(=O)c2c(C)nn(C)c2C)cc1 | -0.03
CC(C)c1nc(N(C)S(C)(=O)=O)nc(-c2ccc(F)cc2)c1/C=C/[C@@H](O)C[C@@H](O)CC(=O)O | -1.7
Cc1cccc(-n2c(/C=C/c3ccccc3O)nc3ccccc3c2=O)c1 | -0.24
CCCN(C(=O)Cn1cnc2sc(C)c(S(=O)(=O)N3CCN(c4ncccn4)CC3)c2c1=O)c1cccc(C)c1 | 0.54
COc1cc(NC(=O)CN2CCCN(S(=O)(=O)c3ccc(F)cc3)CC2)cc(OC)c1 | -0.76
O=S(=O)(c1ccccc1)n1nc(-c2ccc(Cl)cc2)nc1NCc1ccccc1 | 1.8
CCOC(C)c1ccc(-c2cc(OC(C)C)nc(N)n2)cc1 (stereo not drawn) | 0.75

Next section:
SMILES | Bm FixLJ act
CC(=O)NCCCC(=O)N1Cc2cnc(C(C)(C)C)nc2C1 | -1.9
CCN(Cc1nc(C(C)C)no1)C(=O)COCc1nc2ccc(F)cc2[nH]1 | 0.24
COc1ccc(CCNC(=O)c2ccc(Cn3c(=O)[nH]c4cc(OC)c(OC)cc4c3=O)cc2)cc1OC | 0.67
Cc1c(NC(=O)c2ccc(Br)o2)cccc1-c1nc2ccccc2o1 | -1.1
CC(C)Oc1cccc(-c2cc(-c3cnn(C)c3)c(C#N)c(N)n2)c1 | -0.58
COc1cc2c(cc1OC)C1(CCN(S(C)(=O)=O)CC1)OCC2 | 0.16
COc1ccc(S(=O)(=O)Nc2cc(-c3cn4ccc(C)cc4n3)ccc2C)cc1OC | -0.78
CCOc1ccc(C(=O)c2cn(CC(=O)Nc3ccc(F)cc3)c3cc4c(cc3c2=O)OCCO4)cc1 | 1.4
Cc1nccc(CN2CCC3(CC2)CC(=O)N(Cc2cnn(C)c2C)CCO3)n1 | 0.34
CCOCCCNC(=O)c1c(NC(=O)Cc2coc3c(C)c(C)ccc23)sc2c1CCC2 | 0.7
O=C(NCCc1noc(CO)n1)C1CCN(C(=O)C2CCCC2)CC1 | -1.6
Cc1cc(C)cc(OCC(=O)N(Cc2ccc(Cl)cc2)C2CCS(=O)(=O)C2)c1 (stereo not drawn) | -1.7
COc1ccc(CNC(=O)CCc2c(C)nc3c4cccnc4nn3c2C)cc1 | 0.1
Cc1cc(C(=O)NCC2COc3ccccc3O2)cc(S(N)(=O)=O)c1C (stereo not drawn) | -0.24
Fc1ccc(Nc2nc3ccccc3c3nncn23)c(Cl)c1 | -0.31
COc1cccc(-c2noc(-c3ccc(-c4cnn(C)c4)nc3)n2)c1OC | -0.82
Cc1cccc(NC(=O)CSc2nnc3scc(-c4ccccc4)n23)c1 | -1.9
OC1CCC(Nc2cc(-c3ccccc3)nc3ccnn23)CC1 (stereo not drawn) | -0.78
COC(=O)c1ccc(NC(=O)CC2C(=O)N(c3cccc(F)c3)C(=O)N2CC(C)C)cc1 (stereo not drawn) | -1.3
CCS(=O)(=O)c1nc(S(=O)(=O)c2ccc(C)cc2)c(NCc2ccccc2Cl)s1 | 0.48
Cc1c(Cl)cccc1NC(=O)c1cc(-c2cccs2)on1 | -0.46
OC1(Cn2ccnc2)CCN(Cc2ccc(-c3cccc(Cl)c3)o2)CC1 | 0
Cc1nn(C)c2c1C(NC(=O)c1cnc3ccccn3c1=O)CCC2 (stereo not drawn) | -1.5
CCC1CCCCN1C(=O)CSc1nnc(-c2ccc(OC)c(OC)c2)o1 (stereo not drawn) | 0.78
Cc1ccccc1COC(=O)c1nn(-c2ccccc2)nc1N | -1.5

The list continues:
SMILES | Bm FixLJ act
Cc1nc2c(NC(=O)NC(C)Cn3cncn3)cccn2n1 (stereo not drawn) | -0.12
CCn1cc2nc(SCC(=O)Nc3ccc(OC)cc3OC)n(Cc3ccc(Cl)cc3)c(=O)c2n1 | -0.33
CCC1CN(c2ccc(C#N)cn2)CCC(=O)N1Cc1ccccc1 (stereo not drawn) | -1
CN(CCn1ccnc1-c1ccnc2ccccc12)S(C)(=O)=O | 1.7
CCc1ccccc1NC(=O)c1noc2c1CC(C(C)(C)C)CC2 (stereo not drawn) | 1.2
Cc1cccc(Nc2ncc(NC(=O)c3cccc(F)c3)c(Nc3cccc(C)c3)n2)c1 | -2
COc1ccc(CCNC(=O)Cn2nnc(-c3cccc(C(F)(F)F)c3)n2)cc1OC | -1.6
O=C1CC2(CCN(C(=O)Cc3csc(-c4ccccc4)n3)CC2)OCCN1 | -1.7
Cc1ccccc1Nc1sc(C(=O)c2ccccc2)c(N)c1S(C)(=O)=O | -0.87
Cc1ccc2oc(C(=O)N(Cc3sccc3C)C3CCS(=O)(=O)C3)c(C)c2c1 (stereo not drawn) | -1.6
CS(=O)(=O)N1CCCC1C(=O)NCc1csc(N2CCCC2)n1 (stereo not drawn) | -0.12
Cn1ccnc1C(=O)C1CCCN(C(=O)c2ncc(F)cc2F)C1 (stereo not drawn) | -0.99
CC(C)(C)c1ccc(-c2nc3cc(NC(=O)c4cccc(Br)c4)ccc3o2)cc1 | -1.5
Cc1ccc2c(c1)c1c(c(=O)n(-c3cccc(Cl)c3)c(=O)n1CC(=O)NCCC1=CCCCC1)n2C | -0.92
CCc1cccc(NC(=O)CSc2nc3ccsc3c(=O)n2CC)c1 | -0.12
CC(C)(C)c1ccc(OCc2nc3ccccc3n2CCOc2ccccc2)cc1 | 0.85
CCOc1ccc(CN2C(=O)c3ccccc3Sc3ccc(C(=O)N4CCN(C)CC4)cc32)cc1 | -1.1
Fc1cccc(-c2nnn3c2nc(NCCc2ccccc2)c2ccccc23)c1 | -0.94
Cc1cc(NC2COCC2Cc2ccnc3ccccc23)nc(N2CCCC2)n1 (stereo not drawn) | -0.9
CC(=O)c1ccc(N2CCN(C(=O)CCC(=O)Nc3ccc4nc(N5CCCCC5)cc(C)c4c3)CC2)cc1 | -1.3
CCn1cc(C(=O)NCCc2ccccc2)c(=O)c2cc(S(=O)(=O)N3CCCCCC3)ccc21 | -1.2
COc1ccc2c(c1)c(=O)c(S(=O)(=O)c1ccccc1)cn2CC(=O)Nc1ccc2c(c1)OCO2 | -1.9
Cc1ccc(C)c(NC(=O)Nc2csc3c2CCCC3)c1 | 0.31
COc1cccc(CNC(=O)CCCCCn2c(=O)[nH]c3cc(OC)c(OC)cc3c2=O)c1 | 0.8
O=C(NCCc1ccccc1)c1ccc(CSc2nc3ccncc3n2Cc2ccccc2F)cc1 | -2.6

Continuation:
SMILES | Bm FixLJ act
CCSc1oc(-c2ccco2)nc1S(=O)(=O)c1ccc(Br)cc1 | -0.21
Cc1ccc2c(c1)-c1nc(-c3ccccc3)cc(-c3ccccc3)c1CO2 | 0.26
Cc1cc(-c2ccccc2)n2nc(-c3ccccc3)cc2n1 | -1.6
CC1=C(C(=O)Nc2ccc(C)cc2C)C(c2ccc(C(=O)O)cc2)n2nc(SCc3ccccc3)nc2N1 (stereo not drawn) | -1.7
COc1cccc(NC(=O)c2oc3ccccc3c2NC(=O)c2ccc(OC(C)C)cc2)c1 | 0.91
CCCOc1ccc(C2c3c(oc4ccc(F)cc4c3=O)C(=O)N2CCc2ccc(OC)cc2)cc1 (stereo not drawn) | -1.5
CC1CCC(C(=O)NC(C(=O)OCC(=O)c2ccccc2)C(C)C)CC1 (stereo not drawn) | -1.5
COc1ccc(C2C(C(=O)Nc3ccc(C)cc3C)=C(C)Nc3nc4ccccc4n32)c(OC)c1 (stereo not drawn) | -0.18
COc1cc(C(=O)Nc2ccc3oc(-c4ccc(C)c(Br)c4)nc3c2)cc(OC)c1OC | 0.43
Cc1cc(C)c(C#N)c(N2CCn3nc(C(O)c4nccn4C)cc3C2)n1 (stereo not drawn) | 0
CCOc1ccc(NC(=O)Cn2nc(Cc3cccnc3)c3ccccc3c2=O)cc1 | -0.39
CS(=O)(=O)c1ccc([C@@H](O)[C@@H](CF)NC(=O)C(Cl)Cl)cc1 | -2.5

Some of the entries so far, as labelled records.
> COc1cc(NC(=O)CN2CCCN(S(=O)(=O)c3ccc(F)cc3)CC2)cc(OC)c1
  Bm FixLJ act: -0.76

> O=S(=O)(c1ccccc1)n1nc(-c2ccc(Cl)cc2)nc1NCc1ccccc1
  Bm FixLJ act: 1.8

> CCOC(C)c1ccc(-c2cc(OC(C)C)nc(N)n2)cc1 (stereo not drawn)
  Bm FixLJ act: 0.75

> CC(=O)NCCCC(=O)N1Cc2cnc(C(C)(C)C)nc2C1
  Bm FixLJ act: -1.9

Only part of the results is shown, so the mix of outcomes need not match the whole.
